miR-21 FLuc = qHTS Assay for Modulators of miRNAs and/orActivators of miR-21. Potency, µM (doses to about 38.3 µM), inactives show at the top dose reporter change, positive = more light. HeLa miR-21 FLuc reporter, luciferase, 48 h. 340,000 tested, under 10 active. AID 2288, 2010; active = well fitted rising curve with a large enough effect; inconclusive = small, poorly fitted or top-dose-only effect; inactive = no such curve, though single readings can be large or run the other way;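 note: % of control where 0% means no effect; miR-21 action dims this reporter so a rising signal means less miR-21 action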
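HeLa cells stably expressing CMV-driven firefly luciferase with a downstream miR-21 binding sequence, endogenously expressing miR-21, were treated with titrations (up to about 40uM final) for 48 hours at 37 degree Celsius. Luciferase luminescence was read after lysis.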
GLA inh pH 4.5 = qHTS Assay for Inhibitors of Human alpha-Galactosidase at pH 4.5 | Alpha-galactosidase A (Homo sapiens), P06280 | purified enzyme, 4-MU-alpha-Gal fluorescence, pH 4.5 | activity change, negative = inhibition, % at 105 µM | 230,000 tested, under 10 active; inconclusive = small, poorly fitted or top-dose-only inhibition, or a rising curve; inactive = flat fitted curve, though single readings scatter; no compound was filed as active;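 note: 0% = full activity with enzyme and -100% = basal without enzyme; dose as in the result columns while the protocol names 77 µM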
Target sequence (P06280 whole entry, looked up): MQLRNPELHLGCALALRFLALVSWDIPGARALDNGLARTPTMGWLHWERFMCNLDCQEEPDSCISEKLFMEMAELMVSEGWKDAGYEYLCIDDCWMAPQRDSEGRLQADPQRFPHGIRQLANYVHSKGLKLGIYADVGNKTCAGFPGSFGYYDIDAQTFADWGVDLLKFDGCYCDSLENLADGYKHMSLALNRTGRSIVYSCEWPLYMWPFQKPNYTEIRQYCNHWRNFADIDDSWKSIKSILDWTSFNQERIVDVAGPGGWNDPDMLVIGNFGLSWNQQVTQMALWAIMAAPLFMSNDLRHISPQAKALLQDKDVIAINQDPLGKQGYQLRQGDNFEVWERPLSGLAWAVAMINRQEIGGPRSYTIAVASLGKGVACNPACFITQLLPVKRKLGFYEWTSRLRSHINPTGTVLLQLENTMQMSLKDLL
Rango dissoc inh = qHTS Assay for Inhibitors of RanGTP induced Rango (Ran-regulated importin-beta cargo) - Importin beta complex dissociation | Snurportin-1 (Homo sapiens) + GTP-binding nuclear protein Ran (Homo sapiens) + Importin … | Biochemical FRET Rango-importin beta, RanGTP-induced dissociation | Potency, µM (series often up to 46.1 µM), for inactives: at the highest dose activity change, negative = inhibition | hit rate 0.071% among 340,000; active means falling FRET ratio curve, often poorly fitted, with flat reads before Ran was added; inconclusive means other falling curves, or compound fluorescence or quenching; inactive means flat or rising ratio curve;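 note: potency is the fitted concentration of half-maximal effect; % of control where 0% means no effect; nearly all actives have a fitted effect of over 45% in size; -100% = wells without RanGTP and RCC1; the record marks most hits as doubtful in a second field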
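Rango FRET biosensor (snurportin-1 IBB flanked by N-terminal EYFP and C-terminal CFP10) at 0.1 uM, with 0.25 uM importin beta in PBS, 1mM DTT, 0.02% Tween-20, 0.1% BSA. 0.6 uM Ran, 2mM GTP and 0.2 uM RCC1 were then added for 45 min at room temperature. Inhibition read as loss of FRET rise.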
Rango-impB inh = qHTS Assay for Inhibitors of Rango (Ran-regulated importin-beta cargo) - Importin beta complex formation; Importin subunit beta-1 (Homo sapiens), Q14974; Potency, µM (highest dose often 92.2 µM), inactives show at the highest dose inhibition of complex formation; Rango CFP/YFP FRET sensor + importin beta, 45 min; hit rate 0.031% among 340,000; AID 540263, 2011; active = rising FRET ratio curve, often small or poorly fitted; inconclusive = mostly compound fluorescence or quenching in the first reads; inactive = flat curves in all reads;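 note: potency is the fitted concentration of half-maximal effect; 0% = DMSO wells and 100% = buffer wells lacking importin beta; nearly all actives have a fitted effect of over 15% in size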
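FRET biosensor Rango (snurportin 1 IBB between N-terminal EYFP and C-terminal Cerulean), 50 nM in PBS/1 mM DTT/0.02% Tween-20/0.1% BSA, preincubated 5 min RT with compound; 0.125 microM importin beta added, 45 min RT, CFP/YFP FRET ratio read.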
An asterisk follows results filed as active; u = inconclusive; x = not tested or not shown.

miR-21 FLuc | GLA inh pH 4.5 | Rango dissoc inh | Rango-impB inh | Structure
-17% | x | 12% | 4.3% | Cc1ccccc1OCC(=O)Nc1ccccc1C(=O)N1CCCCC1
-6% | -8 | -13% | -2.4% | COC(=O)C1=C(Nc2ccccc2NS(=O)(=O)c2ccc(C(F)(F)F)cc2Cl)CSC1
-17% | 5 | -3% | -2.0% | CCOC(=O)C(CC)n1cnc2c(nnn2-c2ccc(C)cc2)c1=O (centres undefined)
-2% | 3 | -14% | 1.4% | COc1ccc(C(=O)NCc2ccc(-n3cccc3)cc2)cc1OC
0% | -15 | -2% | -2.3% | Cc1ccc(C)c(NC(=O)CN(C)C(=O)COc2ncnc3sccc23)c1
-23% | -17 | -13% | 0.7% | O=C(N/N=C/c1cc([N+](=O)[O-])ccc1O)c1ccc2c(c1)OCCO2
1% | -7 | 22% | -2.0% | CCn1nc([N+](=O)[O-])c(C(C#N)c2nc3ccccc3n2C)c(Cl)c1=O (centres undefined)
3% | x | -14% | 9.3% | CCOc1ccc(N2CC(C(=O)NCCc3ccc(F)cc3)CC2=O)cc1 (centres undefined)
5% | x | 4% | 1.1% | O=C(O)c1ccc(N/N=C/c2c(F)cccc2Cl)cc1
x | x | -2% | 12% | O=C(Nc1csc(Cl)c1)c1ccccc1
-35% | 4 | 3% | -0.1% | Cn1nnnc1SCC(=O)Nc1ccc2c(c1)OCCO2
-6% | 6 | -10% | -1.9% | Cc1cccc(C)c1OCc1n[nH]c(=S)o1
3% | 6 | u | u | Nc1ccn(-c2ncc(C(F)(F)F)cc2Cl)c(=O)n1
0% | 3 | 5% | 6.3% | Cn1nccc1NC(=O)COCC(=O)O
1% | 7 | -9% | 0.7% | O=C(NCc1ccc(Cl)cc1)c1cc([N+](=O)[O-])ccc1Cl
-7% | x | -20% | -6.3% | CC(C)NC(=O)CSc1nc2sccc2c(=O)n1-c1ccccc1
21% | 7 | 5% | u | COCCNC(=S)NCc1ccc2[nH]c3c(c2c1)CCCC3
-33% | x | 15% | 0.2% | Cc1cccc(NC(=O)c2ccc3nccnc3c2)n1
x | x | u | 1.4% | CC(C)N(C(=O)[C@H]1C[C@H](CC(=O)NCCN2CCOCC2)C(=O)N2CCc3c([nH]c4cc(CCC(=O)N(C)C)ccc34)[C@]12C)C(C)C
x | x | 1% | -3.7% | COc1ccc(C(=O)N(C)Cc2cnn(Cc3ccccc3)c2)cc1S(=O)(=O)N1CCOCC1
0% | 7 | 21% | -1.2% | CN(C(=O)c1ccncc1)c1ccccc1
x | x | 17% | 2.6% | Cc1cccn2c(=O)nc(SCC(=O)N3N=C(c4cccs4)CC3c3ccc(F)cc3)nc12 (centres undefined)
x | x | -22% | 1.8% | O=C(CCc1nc2ccccc2c(=O)[nH]1)Nc1cccc(S(=O)(=O)N2CCOCC2)c1
-19% | -10 | 9% | -2.1% | O=C(/C=C/c1ccccc1Cl)N(Cc1ccccc1)C1CCS(=O)(=O)C1 (centres undefined)
x | x | -7% | 0.6% | Cc1ccc(S(=O)(=O)N2CCCCC2)cc1NC(=O)c1cc(F)c(F)c(F)c1F
1% | x | -19% | -5.2% | COc1ccc(S(=O)(=O)n2c(C)nc3ccccc32)cc1C
-5% | 4 | 13% | -3.4% | COc1cc(C(=O)Nc2nnc(C(F)(F)F)s2)c([N+](=O)[O-])cc1OC
2% | 9 | 7% | 6.8% | CCOC(=O)N1CCN(CC(=O)Nc2ccc(OC)cc2)CC1
x | x | 0% | -0.1% | COc1ccc(C(=O)c2ccc([N+](=O)[O-])cc2)c(OC)c1OC
-2% | 6 | 2% | 0.1% | CCOC(=O)N1CCN(S(=O)(=O)c2ccc(OCC(=O)OC)c(C)c2)CC1
x | x | 12% | 0.2% | O=C1NC(=S)SC1=Cc1ccccc1Br
0% | 5 | 13% | 0.5% | CCCn1cc(CN2CCC(Cc3ccccc3)(C(=O)OCC)CC2)c(C)n1
-3% | x | -7% | 37µM* | Cc1cc(SCC(=O)NCC2CCCO2)nc2ccccc12 (centres undefined)
-8% | x | 9% | 7.7% | CN(C)CCCN(C(=O)c1ccc2c(c1)OCCO2)c1nc2cc3c(cc2s1)OCO3
x | x | -1% | -2.9% | COc1ccc(Br)cc1CN(C)C(=O)c1ccccc1OCc1c(C)noc1C
1% | x | 22% | 3.3% | COCc1cccc(C(=O)NC(c2ccccc2)c2ccccc2)c1
-5% | 3 | 4% | -7.3% | Cc1cccc(C(=O)N[C@H](C(=O)OCc2cc(=O)n3c(n2)sc2ccccc23)C(C)C)c1
-2% | x | 9% | 3.0% | O=C(CSc1ccc(Cl)cc1)NC1=NN(c2ccccc2)C(=O)C1
-5% | x | -4% | -0.5% | O=C(NCc1cccnc1)c1cccc(S(=O)(=O)N2CCCC2)c1
0% | 2 | 3% | 0.7% | COc1ccc(NC(=O)CSc2nc(C)cc(C)n2)cc1
-10% | -2 | -2% | -0.3% | O=C(c1ccco1)N1CCN(c2ncnc3scc(-c4ccc(F)cc4)c23)CC1
3% | -1 | -10% | -4.7% | Cc1ccc(CN(Cc2ccccc2)C(=S)NCC(=O)NCc2cccnc2)o1
x | x | -5% | -5.8% | COc1ccccc1CNC(=O)C(Cc1ccccc1)NC(=O)c1ccccc1 (centres undefined)
-1% | x | -6% | -0.4% | O=C(CCNS(=O)(=O)c1ccc(Cl)cc1)Nc1ccncc1
0% | -18 | 2% | 1.4% | COc1cc(CCC(=O)Nc2cccc(C(F)(F)F)c2)cc(OC)c1OC
-6% | -1 | 7% | u | CCOC(=O)N1CCC2(CC1)C(C#N)=C(N)Oc1c2c(C)nn1-c1cccc(Cl)c1
-1% | 2 | -15% | 1.0% | O=C(O)CCC(NS(=O)(=O)c1ccc(-c2ccccc2)cc1)C(=O)O (centres undefined)
-18% | 3 | -1% | 5.1% | C/C(=N/NC(=O)CNC(=O)c1ccccn1)c1ccccc1
-3% | 12 | 37% | 0.1% | CCN(CC)CCCNC(=O)c1cn(C)c2ccc(S(=O)(=O)N(C)C)cc2c1=O
-18% | x | 9% | 1.8% | Cc1ccc(-c2nnn(CC(=O)N3CCCCC3)n2)cc1
x | x | 27% | -2.8% | Cc1csc(SCC(=O)N(c2ccccc2)C(C)C)n1
x | x | -3% | u | O=C(COc1cccc(Br)c1)Nc1ccc(Cl)c(S(=O)(=O)N2CCOCC2)c1
-8% | 0 | 0% | -3.9% | Cc1c(Cl)c(C(=O)NNC(=S)NCc2ccco2)nn1C
23% | -9 | x | x | OCCN1CCN(C(c2cccs2)c2ccc3cccnc3c2O)CC1 (centres undefined)
x | x | 5% | 1.6% | [N-]=[N+]=CC(=O)C(O)(c1ccccc1)C(Cl)c1ccccc1 (centres undefined)
-3% | x | -15% | -0.6% | Cc1[nH]c(C)c(S(=O)(=O)NCc2ccc(Cl)cc2)c1C(=O)N1CCCC1
-14% | -5 | u | u | c1ccc(-c2cn3c(n2)CCc2ccc4cccnc4c2-3)cc1
-12% | 1 | -3% | -0.7% | Cc1ccc(-n2ncc3c(NCc4ccco4)ncnc32)c(C)c1
-1% | x | -8% | 0.2% | CCC(C(=O)NCc1ccco1)N(C(=O)CNS(=O)(=O)c1ccc(C)cc1)c1ccccc1F (centres undefined)
-18% | -11 | 10% | -2.3% | CCOc1ccc(Oc2c(/C=N/NC(C)=O)c(C)nn2-c2ccccc2)cc1

By substructure: those above with bromine
miR-21 FLuc | GLA inh pH 4.5 | Rango dissoc inh | Rango-impB inh | Structure
x | x | 12% | 0.2% | O=C1NC(=S)SC1=Cc1ccccc1Br
x | x | -1% | -2.9% | COc1ccc(Br)cc1CN(C)C(=O)c1ccccc1OCc1c(C)noc1C
x | x | -3% | u | O=C(COc1cccc(Br)c1)Nc1ccc(Cl)c(S(=O)(=O)N2CCOCC2)c1

Next section.
miR-21 FLuc | GLA inh pH 4.5 | Rango dissoc inh | Rango-impB inh | Structure
1% | x | 1% | -8.2% | COc1ccc(CN2CCN(c3ccccc3OC)CC2)c(OC)c1
5% | 16 | 12% | u | O=c1c(-c2ccco2)[n+]([O-])c2ccccc2n1OCc1ccccc1F
3% | -2 | -1% | -0.7% | CCOC(=O)CSC(CC)C(=O)Nc1nnc(CC)s1 (centres undefined)
x | x | 14% | u | c1ccc2[nH]cnc2c1
-7% | 5 | 0% | -1.9% | O=C(/C=C/c1ccc([N+](=O)[O-])cc1)NCc1cccnc1
-2% | -1 | -8% | -0.5% | NC(=O)c1ccc(NC(=O)COC(=O)/C=C/c2cccs2)cc1
-4% | -27 | -8% | -2.5% | CCN(CC(=O)Nc1ccc2c(c1)OCCO2)c1nc(-c2cccnc2)nc2ccccc12
-5% | -8 | 14% | -4.2% | C=CCN1CC(O)=C(c2ccccc2)C1=N
-8% | -1 | 2% | 4.8% | Cc1noc(COc2ccc(OCc3nc(C)no3)cc2)n1
-11% | u | 18% | -3.0% | O=C(O)c1cc(-c2cccs2)nc2cc3c(cc12)OCCO3
-1% | -18 | -14% | u | O=C(O)CC1(CC(=O)Nc2ccccc2C(=O)c2ccccc2)CCCC1
-3% | x | -1% | 1.2% | CN1CCN(S(=O)(=O)c2cccc(C(=O)Nc3ccccc3N3CCCC3)c2)CC1
4% | x | x | u | COc1cccc(N(CC(=O)NCCSc2ccccn2)S(=O)(=O)c2ccccc2)c1
-16% | -1 | -5% | 4.7% | Cc1cc(C)nc(NS(=O)(=O)c2ccc(NC(=S)NC(=O)CC(C)C)cc2)n1
-1% | x | 0% | 0.0% | CC1=C(C(=O)OC(C)(C)C)C(c2cccc3ccccc23)NC(=O)N1 (centres undefined)
-5% | -2 | -7% | 0.2% | CCCOc1ccc(S(=O)(=O)n2cc(Br)c(=O)[nH]c2=O)cc1
8% | x | -11% | -1.6% | Cc1ccc(C2(C)NC(=O)N(CC(=O)NC(=O)NC(C)(C)C)C2=O)cc1 (centres undefined)
-5% | x | 3% | 0.6% | O=C(CSc1ncnc2sc3c(c12)CCC3)N1CCOCC1
0% | x | 45% | -0.5% | O=S(=O)(NOCc1ccc(Cl)cc1)c1ccc(Cl)cc1
3% | 2 | 1% | -1.4% | COc1cc(NC(=O)c2ccco2)c(C(=O)O)cc1OC
x | x | -4% | -0.2% | O=C(Nc1cccc(C(=O)N2CCOCC2)c1)C1CC1
3% | -4 | -10% | 0.4% | CCCCN(CCCC)c1nc(-c2ccncc2)nc2ccccc12
-5% | 2 | 12% | 6.2% | CN1CCN(C(=S)NC(=O)/C=C/c2cccs2)CC1
-1% | -3 | -3% | 0.1% | COc1ccccc1Nc1c2c(nc3ccc(N)cc13)CCCC2
3% | x | -13% | -0.2% | Oc1ccc(C2=NN(c3ccccc3)C(c3ccc(F)cc3)C2)cc1 (centres undefined)
-4% | 0 | 1% | -0.4% | CCN(CC)C(=S)NC(=O)c1ccc(OC)c(Br)c1
2% | x | -8% | 3.7% | CN(C)CCCNC(=S)N(CCN(C)C)Cc1cc2cc3c(cc2[nH]c1=O)OCCO3
-1% | 7 | 0% | 0.8% | COc1ccc(-n2nnnc2SCC(=O)Nc2cccc(C)n2)cc1OC
14% | -7 | -12% | 7.9% | COc1cc(NC(=S)NCCC(c2ccccc2)c2ccccc2)cc(OC)c1
0% | 12 | 2% | 0.6% | C/C(=N/OC(=O)c1ccc(F)cc1)c1ccc(C)cc1
x | x | 0% | -1.2% | CCN(CC(=O)Nc1ccccc1OC)Cc1csc(CC(=O)Nc2ccc(C)cc2)n1
-2% | x | -29% | u | Cc1cc(N/N=C/c2ccc(N(C)C)cc2)c2ccccc2n1
x | x | 7% | 1.0% | Cc1nnc(SC(C)C(=O)NC2CCCCC2)[nH]c1=O (centres undefined)
1% | 3 | -15% | 9.2% | O=C1CC(C(=O)N2CCOCC2)C2(CCCC2)O1 (centres undefined)

Screening results (PubChem)

Some of the compounds tested; count on the stated rates, not on these rows.
